Screening data from PubChem BioAssay.
PV pol inh: poliovirus RdRp elongation inhibitors, primary screen, biochemical, fluorescence polarization, total intensity | Genome polyprotein (Poliovirus type 1 (strain Mahoney)), P03300 | poliovirus polymerase elongation; hits give low values | % elongation, % (compound at 16.7 µg/mL) | 150,000 tested, 0.66% active | AID 588519, 2011; in the data active means % elongation below about 90%; further: some results filed as inactive read as strong as hits
Mtb MbtI inh: MbtI salicylate synthase inhibitors, primary screen, biochemical, fluorescence intensity. P9WFX0. AID 493033, 2011. purified MbtI enzyme, fluorescence intensity read-out. 100,000 tested, 0.89% active. inhibition, %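 (about 17 µg/mL by stock and volumes)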;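 active means above 50% in both replicates, above 80% if mildly self-fluorescent; inactive means the rest, strongly fluorescent compounds included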;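 further: 0% = mean of negative and 100% = mean of positive controls; one replicate is shown; some compounds called inactive have numbers as strong as hits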
Target sequence (P9WFX0 whole entry, looked up): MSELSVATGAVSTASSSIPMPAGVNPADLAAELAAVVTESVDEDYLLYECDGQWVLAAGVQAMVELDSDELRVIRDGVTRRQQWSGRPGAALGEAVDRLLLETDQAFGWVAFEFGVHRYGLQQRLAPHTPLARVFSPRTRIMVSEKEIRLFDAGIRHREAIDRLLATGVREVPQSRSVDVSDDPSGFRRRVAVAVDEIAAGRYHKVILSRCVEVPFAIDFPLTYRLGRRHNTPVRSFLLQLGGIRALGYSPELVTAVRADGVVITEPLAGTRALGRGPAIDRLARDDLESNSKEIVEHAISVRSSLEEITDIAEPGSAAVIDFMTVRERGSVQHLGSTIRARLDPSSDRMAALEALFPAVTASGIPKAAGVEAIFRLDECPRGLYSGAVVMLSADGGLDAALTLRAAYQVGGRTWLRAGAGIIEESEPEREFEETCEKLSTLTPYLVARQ
MenB inh: M. tuberculosis MenB inhibitors, primary screen, biochemical, absorbance; 1,4-dihydroxy-2-naphthoyl-CoA synthase (Mycobacterium tuberculosis (strain ATCC 25618 / …; MenB enzyme assay, absorbance read-out; some hits fall short of the stated cut; inhibition, %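 (about 12 µg/mL by stock and volumes)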; 100,000 tested, 0.43% active; AID 540299, 2011;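 active means mean of two replicates above 30%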;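 further: 0% = no compound and 100% = wells with inactive enzyme; the first replicate is given; strong numbers were not always called active; inactives centre near -10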
Target sequence (P9WNP5 whole entry, looked up): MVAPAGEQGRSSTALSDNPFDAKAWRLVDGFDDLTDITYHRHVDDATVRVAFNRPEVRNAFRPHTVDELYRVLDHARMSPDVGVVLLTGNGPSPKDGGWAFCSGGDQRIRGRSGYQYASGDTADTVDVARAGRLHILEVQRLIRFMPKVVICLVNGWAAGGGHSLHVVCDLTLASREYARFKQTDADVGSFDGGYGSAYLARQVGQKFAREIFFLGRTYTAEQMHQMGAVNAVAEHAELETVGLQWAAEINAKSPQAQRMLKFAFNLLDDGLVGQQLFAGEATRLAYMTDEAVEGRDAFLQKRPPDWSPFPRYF
PV pol inh intensity: second read-out of PV pol inh, no call of its own (marks repeat the call); % elongation; measured here: total intensity read-out; formula for this scale not given here;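 total fluorescence in place of polarization; lower means less elongation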
* marks the source's active call; other numbers are inactive results; i = inactive; · = not tested or not shown.

SMILES	PV pol inh	PV pol inh intensity	Mtb MbtI inh	MenB inh
O=C(c1ccco1)N1CCN(C2c3cccc4cccc(c34)C2NS(=O)(=O)c2ccccc2)CC1 (stereo unspecified)	104.0	100.0	-12.4	-29.6
c1cncc(-c2nnc3n2CCCCC3)c1	100.0	101.0	-5.8	-8.8
CN(C(=O)COC(=O)c1ccc(Br)o1)c1ccccc1	103.0	104.0	-7.6	·
CCc1ccc(C(=O)Nc2cc(NC(=O)c3ccco3)ccc2C)cc1	100.0	101.0	-1.5	4.6
NC(=O)c1c(-c2ccccc2)oc2ccc(O)cc12	104.0	113.0	·	-5.4
COc1ccc(OC)c(N/C=C(\C#N)c2nc(-c3cc4ccccc4oc3=O)cs2)c1	102.0	110.0	-2.8	-22.9
CCc1nc2cccnc2n1-c1ccc(CC(=O)NCCOC)cc1	102.0	107.0	3.5	-18.3
O=C(COC(=O)c1ccco1)c1ccc(-n2nncc2C23CC4CC(CC(C4)C2)C3)cc1	102.0	99.0	-2.3	-27.0
COc1ccc(NC(=O)CC(C)S(=O)(=O)c2ccc3c(c2)NC(=O)CO3)cc1 (stereo unspecified)	100.0	102.0	-1.4	8.9
O=C1CCCc2cc(S(=O)(=O)NCC3CCC(C(=O)Nc4ccccc4)CC3)ccc2N1 (stereo unspecified)	101.0	103.0	-0.7	-13.2
Cc1cccc(N2COc3cc4c(cc3C2)OCO4)c1	101.0	104.0	4.1	9.5
O=C(c1ccc(OC(F)F)cc1)N1CCN(c2ccccc2)CC1	104.0	94.0	-8.0	-11.4
NC(=O)CSc1nnc(NC(=O)c2cccs2)s1	105.0	109.0	7.0	-28.9
CCOc1ccc2c(c1)sc(=NC(=O)c1ccc(S(=O)(=O)N3CCCCC3C)cc1)n2CC (stereo unspecified)	103.0	104.0	0.4	6.3
CC(=O)Nc1ccc(C(=O)CSc2nnnn2C(C)C)cc1	102.0	103.0	9.6	-27.9
CCc1ccc(CCC(=O)Nc2cccc(NC(=O)CCc3ccc(CC)o3)c2)o1	99.0	104.0	-2.6	-19.1
CC(=O)N1C(c2ccccc2)CC(=O)C(c2ccccc2)C1c1ccccc1 (stereo unspecified)	106.0	101.0	·	-7.6
CCc1ccc(NC(=O)COc2ncnc3c2cnn3-c2ccccc2)cc1	107.0	110.0	-12.2	3.4
Cc1cc(C)nc(/N=C2\NC(=O)CC(C(=O)O)N2c2ccc(Oc3ccccc3)cc2)n1 (stereo unspecified)	100.0	101.0	6.0	-6.9
O=C(O)c1ccccc1Nc1ccc(SC(F)F)cc1	106.0	106.0	64.2	-23.9

Quoted from above for reference:
SMILES	PV pol inh	PV pol inh intensity	Mtb MbtI inh	MenB inh
CCc1ccc(C(=O)Nc2cc(NC(=O)c3ccco3)ccc2C)cc1	100.0	101.0	-1.5	4.6
NC(=O)c1c(-c2ccccc2)oc2ccc(O)cc12	104.0	113.0	·	-5.4
COc1ccc(OC)c(N/C=C(\C#N)c2nc(-c3cc4ccccc4oc3=O)cs2)c1	102.0	110.0	-2.8	-22.9
CCc1nc2cccnc2n1-c1ccc(CC(=O)NCCOC)cc1	102.0	107.0	3.5	-18.3
O=C(COC(=O)c1ccco1)c1ccc(-n2nncc2C23CC4CC(CC(C4)C2)C3)cc1	102.0	99.0	-2.3	-27.0
COc1ccc(NC(=O)CC(C)S(=O)(=O)c2ccc3c(c2)NC(=O)CO3)cc1 (stereo unspecified)	100.0	102.0	-1.4	8.9
O=C1CCCc2cc(S(=O)(=O)NCC3CCC(C(=O)Nc4ccccc4)CC3)ccc2N1 (stereo unspecified)	101.0	103.0	-0.7	-13.2
Cc1cccc(N2COc3cc4c(cc3C2)OCO4)c1	101.0	104.0	4.1	9.5
O=C(c1ccc(OC(F)F)cc1)N1CCN(c2ccccc2)CC1	104.0	94.0	-8.0	-11.4
NC(=O)CSc1nnc(NC(=O)c2cccs2)s1	105.0	109.0	7.0	-28.9
CCOc1ccc2c(c1)sc(=NC(=O)c1ccc(S(=O)(=O)N3CCCCC3C)cc1)n2CC (stereo unspecified)	103.0	104.0	0.4	6.3
CC(=O)Nc1ccc(C(=O)CSc2nnnn2C(C)C)cc1	102.0	103.0	9.6	-27.9
CCc1ccc(CCC(=O)Nc2cccc(NC(=O)CCc3ccc(CC)o3)c2)o1	99.0	104.0	-2.6	-19.1
CC(=O)N1C(c2ccccc2)CC(=O)C(c2ccccc2)C1c1ccccc1 (stereo unspecified)	106.0	101.0	·	-7.6

The listing continues.
SMILES	PV pol inh	PV pol inh intensity	Mtb MbtI inh	MenB inh
CC1CCN(c2ccc(NC(=O)CCC(=O)O)cc2)CC1	100.0	106.0	-12.4	-7.2
CCCC1CCC(c2ccc(C(N)=O)cc2)CC1 (stereo unspecified)	103.0	99.0	1.9	4.8
CC(/C=N/NC(=O)c1ccco1)=C\c1ccco1	101.0	104.0	5.9	1.2
CC1CCN(c2nnc(N)s2)CC1	101.0	96.0	-6.8	-17.4
COc1ccc(NC(=O)c2ccc3c(=O)n(CCc4ccccc4)c(=S)[nH]c3c2)cc1	102.0	104.0	-9.8	1.0
COc1ccc(-c2cc(=NC(CC(C)C)C(=O)O)c3cc(C)ccc3o2)cc1 (stereo unspecified)	99.0	102.0	i	-33.3
CC1=NN(c2ccccc2)C(=O)C1C=C1C(=O)N(C)C(=S)N(C)C1=O (stereo unspecified)	100.0	101.0	4.0	-89.3
COc1ccc(CNC(=O)CC2Oc3ccccc3NC2=O)cc1 (stereo unspecified)	102.0	96.0	-10.8	-9.2
Cc1cc(NC(=O)Cn2c(=O)n(CC3CCC(C(=O)NCCc4ccccc4)CC3)c(=O)c3ccccc32)n[nH]1 (stereo unspecified)	100.0	106.0	13.8	-4.8
CCOC(=O)C1=NN(c2ccccc2)C(=C2C(=O)c3ccccc3C2=O)S1	105.0	106.0	-6.3	1.7
O=C(CNc1ccccc1F)N/N=C1\CCCCc2ccccc21	103.0	107.0	12.4	-20.1
C=CC1(C)OC(=O)N(c2cc(Cl)cc(Cl)c2)C1=O (stereo unspecified)	103.0	104.0	1.9	33.2
CCOC(=O)c1cc(-c2ccc(F)cc2)n(CC(=O)NN2CCOCC2)c1C	100.0	102.0	-12.9	-8.7
Cc1cc(Br)cc(C)c1OCCCN(C)C	88.0*	82.0*	-4.1	-1.1
S=C(c1ccccc1)N1CCSCC1	111.0	108.0	4.2	-12.2
CCOC(=O)N1CCN(C(=O)CNC(=O)c2ccc(Br)cc2)CC1	103.0	105.0	-13.1	-99.1
CCN(CC)C(=O)CCc1nc(CN2CCN(C(=O)c3cc(-c4cccs4)on3)CC2)no1	103.0	104.0	8.9	1.3
CC1(C)CC(=O)CC(=O)S1	102.0	91.0	34.1	-71.2
COc1cc2[nH]c(=S)n(NC(=O)CC(C)C)c(=O)c2cc1OC	99.0	101.0	34.5	-15.1
O=C(CN1C(=O)C2CC=CCC2C1=O)NC1CCCc2ccccc21 (stereo unspecified)	102.0	109.0	8.4	-18.1
O=C(O)CC1S/C(=N/N=C/c2ccccc2)NC1=O (stereo unspecified)	100.0	99.0	30.4	-8.5
N#CCC(=O)N1CCn2c1nc1ccccc12	104.0	99.0	2.9	·
Cc1ccc(-c2cc(C(F)F)nc(NCc3ccco3)n2)cc1	102.0	101.0	-2.7	-1.1
CC(C)(CNc1nc2cc3c(cc2nc1NS(=O)(=O)c1ccccc1)OCCO3)N1CCOCC1	100.0	96.0	72.5	-22.7
CN(C1=NC(=O)/C(=C2/C(=O)N(C)c3ccccc32)S1)c1ccc(Cl)cc1	100.0	103.0	-22.9	-16.2
CC1CCN(Cc2c(O)ccc3occ(C(=O)c4ccccc4)c23)CC1	100.0	104.0	-1.6	10.1
COc1ccc(N2CCN(CCCNC(=O)C3CCCN(S(=O)(=O)c4c(C)noc4C)C3)CC2)cc1 (stereo unspecified)	106.0	105.0	0.1	-43.3
O=S(=O)(CCc1ccccc1)c1ccccc1	100.0	100.0	-2.5	26.2*
CCn1c(C)nc2cc(C(=O)NN=C3CCN(C)CC3)ccc21	98.0	105.0	-4.0	-1.5
On1c(-c2ccccc2Cl)nc2c1CCc1nonc1-2	105.0	108.0	·	-18.3
c1ccc(-c2ccccc2NC2=NCCS2)cc1	100.0	103.0	-2.3	-3.6
CC1CC(C)CN(C(=O)Cn2c(=O)n(CCCCC(=O)NCc3ccco3)c(=O)c3ccccc32)C1 (stereo unspecified)	99.0	102.0	8.0	7.5
N#CC1=CC=C(c2ccc(Cl)cc2)NC1SCc1nc2ccccc2[nH]1 (stereo unspecified)	120.0	136.0	·	-11.6
COc1ccc(-n2cc[nH]c2=S)cc1	102.0	101.0	26.6	7.4
CC1=C(C(=O)Nc2ccc(Cl)cc2C(=O)N2CCc3ccccc32)SCCO1	99.0	98.0	-0.2	-6.3
CN(C)c1ccc(-c2nnc(SCC3CCCO3)n2C)cc1 (stereo unspecified)	100.0	103.0	17.4	26.0
O=C(/C=N/O)Nc1cccc(F)c1	99.0	98.0	-8.2	-17.5
Nc1c(S(=O)(=O)c2ccc(Cl)cc2)c2cnn(-c3ccccc3)c(=O)c2n1CCCN1CCOCC1	94.0	98.0	6.8	-10.5
CC(C)Cn1c(SCC(=O)C(C)(C)C)nc2ccccc2c1=O	101.0	98.0	16.6	15.4
CN1C(=O)C(C)(C)c2cc(S(=O)(=O)N3CCc4ccccc43)ccc21	101.0	101.0	-7.3	-9.7
Cc1ccc(O)c(C(=O)c2cc(-c3nc4ccccc4c(=O)[nH]3)n(C)c2)c1	102.0	108.0	6.7	-16.0
O=C(Cn1c(C(F)(F)F)nc2ccccc21)c1ccccc1	102.0	97.0	-9.3	·
CCN(CC)C(=O)C1CCN(Cc2cccc(OC)c2OC)CC1	102.0	101.0	-7.8	8.3
O=C1C2C3C=CC(C3)C2C(=O)N1CNc1ccccc1 (stereo unspecified)	101.0	104.0	-2.5	7.2
O=C(CSc1nc2ccsc2c(=O)n1Cc1ccccn1)c1ccccc1	104.0	103.0	15.2	-18.3
C/C(N)=C(/C#N)C(=O)CSc1cc(C)ccc1C	102.0	102.0	10.0	-14.0
O=C(c1c[nH]c2ccccc12)C(c1ccccc1)N1CCCCC1 (stereo unspecified)	100.0	101.0	-2.7	-5.4
Nc1nc(CCC(=O)O)cs1	101.0	102.0	0.8	5.7
NCc1ccc(OCc2ccc(F)cc2)cc1	102.0	104.0	-3.4	2.0
CSc1nc(NNC(=O)c2ccco2)c2c3c(sc2n1)COC(C)(C)C3	106.0	100.0	6.7	-10.5
c1ccc(-c2nc3ccccn3c2NCC2CCCO2)cc1 (stereo unspecified)	102.0	104.0	-117.2	-5.1
Cc1cc(I)ccc1NC(=O)CSc1ncn[nH]1	101.0	107.0	-8.9	·
Cc1ccccc1OCC1=NN2C(=N)/C(=C\c3ccc(SCc4ccco4)o3)C(=O)N=C2S1	103.0	120.0	46.0	-12.8
Fc1ccc(C(NCCc2ccccc2)c2nnc(-c3ccccc3)o2)cc1 (stereo unspecified)	101.0	102.0	-25.6	-16.3
O=C(NCc1ccc(-c2nc3ccccc3s2)cc1)c1cccnc1	102.0	106.0	·	-6.5
O=C(NC1CCCCC1)c1ccc(CS(=O)Cc2ccc(Cl)cc2)o1 (stereo unspecified)	101.0	103.0	-6.8	4.1
Oc1nc2ccccn2c1-c1c(O)nc2ccccn12	21.0*	56.0*	5.6	·
Nc1nc(SCC(=O)NN(c2ccccc2)c2ccccc2)n[nH]1	103.0	103.0	-6.2	-13.6
Cc1ccc(Cn2c(SCC(=O)c3ccc(Br)cc3)nc3ncccc3c2=O)cc1	101.0	104.0	3.0	-11.9
CC(Cc1ccccc1)NC(=O)CC(c1ccccc1)c1cc(Br)ccc1O (stereo unspecified)	103.0	105.0	-2.5	-3.0
(next part)
SMILES	PV pol inh	PV pol inh intensity	Mtb MbtI inh	MenB inh
Nc1cc(C(=O)O)ccc1Nc1ccccc1	99.0	100.0	-1.1	1.0
COc1ccc(/C=N/n2cnnc2)cc1	103.0	98.0	11.1	-1.7
CN1CCN(CCCN2C(=O)CSC2c2ccc(F)cc2)CC1 (stereo unspecified)	101.0	96.0	-7.5	-20.2
CN(c1ccccc1)C(c1ccc(F)cc1)c1nnnn1C1CCCC1 (stereo unspecified)	102.0	98.0	-12.4	-53.0
CCCn1c(=O)c(-c2noc(-c3ccc(Cl)cc3)n2)nn(-c2ccccc2)c1=O	101.0	96.0	-0.3	-11.1
COc1ccc2c(c1)CCc1c-2nc2ccc(Br)cc2c1C(=O)O	103.0	107.0	-2.2	-7.7
Cc1oc(CO)cc1C(=O)O	102.0	106.0	11.9	-9.2
COc1ccc(CNC(=O)OCc2nccnc2C(=O)Nc2ccc(Br)cn2)cc1	101.0	97.0	-10.9	-26.9
O=C(Oc1ccc(C=Nc2ccc(F)cc2)cc1)c1ccco1	103.0	100.0	·	-5.8
CC(Nc1ccccc1)N1C(=O)CCC1=O (stereo unspecified)	100.0	104.0	13.2	-38.6
CCOC(=O)c1cc(-c2ccccc2)n(CCC(=O)N(C)Cc2ccccc2)c1	103.0	105.0	-3.5	-30.1
c1ccc2c(COn3nnc4ccccc43)cccc2c1	98.0	100.0	-6.5	-21.3
NCCS	102.0	104.0	51.4*	-0.1
CC(NC(=O)COc1ccccc1F)C1CC2CCC1C2 (stereo unspecified)	105.0	107.0	-14.2	·
CN(C)CCNC(=O)Cn1ncc2c(=O)oc3ccccc3c21	101.0	98.0	11.9	-16.0
C=CCn1c(SC2CCCC2=O)nnc1-c1ccc(Cl)cc1 (stereo unspecified)	102.0	108.0	-1.8	-2.1
